Compound activity deposited in PubChem BioAssay by National Center for Advancing Translational Sciences (NCATS).
Methyltransferases = Primary Screen for Target Class Profiling of Small Molecule Inhibitors of Methyltransferases; calls only at 40 µM; purified enzyme, MTase-Glo SAH luminescence; active compounds read low; AID 1745853, 2022; actives 3.9% (n = 25,000); active = -50% or lower on at least one of six enzymes; inconclusive = the cases between; inactive = as a rule above -30% on all six;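 note: enzymes were COMT GAMT GNMT HNMT NNMT and PNMT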
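Each enzyme was assayed with SAM and its substrate. SAH formation detected by MTase-Glo luminescence; single-point 40 uM screen[…].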
Calls only; i = inactive; ? = inconclusive; + = active, no number. % is set by controls: 0 for no effect and ±100 for the full control effect. Some of the compounds tested. The share of hits here may be higher or lower than overall.

SMILES	Methyltransferases
CC(N)(C(=O)O)c1ccc(C(=O)O)cc1 (stereo not drawn)	i
CCCn1c(=O)c2ccc(C(=O)NC(C)C)cc2n2c(=O)n(Cc3c(F)cccc3Cl)nc12	i
CC(C)C1c2cccn2CCN1C(=O)NC1CCCCC1 (stereo not drawn)	i
CC(=O)OC1CC2(C)C(CCC(C)C23Cc2c(O)cc4c(c2O3)CNC4=O)C(C)(C)C1O (stereo not drawn)	i
O=C(NCCN1CCCC1)c1c(OCC2CC2)cc(=O)n2c1CCOCC2	i
Cc1nc([C@](C)(O)CO)sc1-c1cnc(N)c(O[C@H](C)c2cc(F)ccc2-n2nccn2)c1	+
O=C(CCc1nnc2n(Cc3ccc(F)cc3)c(=O)c3ccccc3n12)NCCCN1CCCC1=O	i
CCN1C(=O)c2c(C(=O)NCc3ccc(OC)c(OC)c3)ncn2CC1(C)C(=O)NC1CCCC1 (stereo not drawn)	i
CC1(C(=O)O)CCN(C(=O)c2cccc(Cl)c2)CC1	i
C=CCn1c(=O)c2ccc(C(=O)NC(C)CC)cc2n2c(=O)n(CC(=O)Nc3cccc(F)c3)nc12 (stereo not drawn)	i

Continued (4 carried over from the part before).
SMILES	Methyltransferases
O=C(CCc1nnc2n(Cc3ccc(F)cc3)c(=O)c3ccccc3n12)NCCCN1CCCC1=O	i
CCN1C(=O)c2c(C(=O)NCc3ccc(OC)c(OC)c3)ncn2CC1(C)C(=O)NC1CCCC1 (stereo not drawn)	i
CC1(C(=O)O)CCN(C(=O)c2cccc(Cl)c2)CC1	i
C=CCn1c(=O)c2ccc(C(=O)NC(C)CC)cc2n2c(=O)n(CC(=O)Nc3cccc(F)c3)nc12 (stereo not drawn)	i
CC(C)CCNC(=O)C1(C)Cn2c(cc3ccccc32)C(=O)N1CCc1ccccc1Cl (stereo not drawn)	i
Cc1ccc(NC(=O)N2Cc3c(sc4c3CCCC4)-n3cccc3C2c2ccccc2)cc1 (stereo not drawn)	i
COC(=O)C1=COC(OC2OC(CO)C(O)C(O)C2O)C2C(COC(=O)/C=C/c3ccc(O)cc3)C(O)C(O)C12 (stereo not drawn)	i
O=C(C1CCCC1)N1CCC(C(=O)N2CCCC2c2ccccn2)CC1 (stereo not drawn)	i
CC(C)C1=NOC2(CCN([S+](=O)([O-])c3cccc(C(F)(F)F)c3)C2)C1 (stereo not drawn)	i
CC1(C(=O)NCc2ccccc2)Cn2c(cc3ccccc32)C(=O)N1Cc1ccccc1Br (stereo not drawn)	i
COCCNC(=O)CCc1nnc2n(Cc3ccc(Cl)cc3)c(=O)c3ccccc3n12	i
COc1cccc(NC(=O)N2Cc3c(sc4c3CCCC4)-n3cccc3C2c2cccc(OC)c2)c1 (stereo not drawn)	i
CC(C)c1ccc(-c2cc(=O)c3ccccc3o2)cc1	?
C[C@@H]1CN(Cc2ccc(F)cc2)[C@@H](C)CN1C(=O)c1cc2c(C(=O)C(=O)N(C)C)cn(C)c2cc1Cl	i
COc1ccc(-c2cc3n(n2)CC(C)(C(=O)NCc2ccccc2OC)N(c2ccc(Cl)cc2)C3=O)cc1 (stereo not drawn)	i
COc1cccc(NS(=O)(=O)c2ccc3[nH]c(=O)[nH]c3c2)c1	i
Cc1noc(C)c1-c1cc2c(cc(C)n2C)c(-c2ccnn2C)n1	?
O=C(NCC1CN(CC2CC2)CC12CN(c1ccccc1)C2)Nc1ccccc1 (stereo not drawn)	i
COc1ccc2nc3n[nH]c(C)c3c(NCCOCCO)c2c1	+
COc1ccc(NC(=O)c2cc3c(s2)CN(C2CCCC2)C3)c(OC)c1	i
CCc1noc(-c2cn(C3CCCN(C(=O)COc4cccc(C)c4)C3)nn2)n1 (stereo not drawn)	i
COc1ccc(C(O)C(C)OC2OC(CO)C(O)C(O)C2O)cc1 (stereo not drawn)	i
O=C(CCC[C@@H]1[C@H]2CCCN3CCC[C@@H](CN1Cc1ccccc1)[C@@H]23)Nc1cccnc1	+
COc1ccc(OC)c(S(=O)(=O)N2CCc3nc(-c4ccc(Cl)cc4)ncc3C2)c1	i
COc1cccc(CNC(=O)c2cc3n(n2)CC(C)(C(=O)NCCC(C)C)N(C)C3=O)c1 (stereo not drawn)	i
Cc1nc(C(=O)N2CCn3nc(Cc4ccccc4)cc3C2)cs1	i
CC(C)(O)/C=C/CC(C)(O)C1C(O)CC2(C)C3CCC4C(C)(C)C(=O)CCC4(C)C3CCC12C (stereo not drawn)	i
CCOC(=O)c1cccc(NS(=O)(=O)c2ccc3c(c2)NC(=O)C(C)C(=O)N3)c1 (stereo not drawn)	i
CN(c1ccc(NC(=O)Nc2ccc(OC(F)(F)F)cc2)cc1)c1ccnc(Nc2cccc(S(N)(=O)=O)c2)n1	?
CCCCN1C(=O)c2cc(C(=O)Nc3cccc(C)c3C)nn2CC1(C)C(=O)NC1CCCC1 (stereo not drawn)	i
COC(=O)c1cc(OC)cc(OC)c1C(=O)c1c(OC)cc2c(c1O)C1CCC(O)C(C)(O2)O1 (stereo not drawn)	?
CC(C)OCCCn1c(=O)c2ccccc2n2c(SCC(=O)Nc3ccc(F)cc3)nnc12	i
CCc1cccc(NC(=O)c2cc3n(n2)CC(C)(C(=O)NC2CCCCCC2)N(C)C3=O)c1 (stereo not drawn)	i
CN(Cc1ccccc1)C(=O)[C@H]1O[C@H](CCN2CCOCC2)CC[C@@H]1O	i

The list goes on, overlapping the part above by three compounds.
SMILES	Methyltransferases
CC(C)OCCCn1c(=O)c2ccccc2n2c(SCC(=O)Nc3ccc(F)cc3)nnc12	i
CCc1cccc(NC(=O)c2cc3n(n2)CC(C)(C(=O)NC2CCCCCC2)N(C)C3=O)c1 (stereo not drawn)	i
CN(Cc1ccccc1)C(=O)[C@H]1O[C@H](CCN2CCOCC2)CC[C@@H]1O	i
CC1CCC(NC(=O)C2(C)Cn3c(ccc3-c3ccco3)C(=O)N2Cc2ccc(F)cc2)CC1 (stereo not drawn)	i
COC(=O)c1cc2n(n1)CC(C)(C(=O)NC1CCC(C)CC1)N(c1ccc(Cl)cc1C)C2=O (stereo not drawn)	i
CCCCCCCC/C=C\CCCCCCCC(=O)NCc1ccc(O)c(OC)c1	i
CC(C)NC(=O)Cn1nc2n(C(C)C)c(=O)c3ccc(C(=O)NC4CCCCC4)cc3n2c1=O	i
O=C(O)C[C@@H](NC(=O)c1cc(-c2ccc(-c3ccncc3)cc2)cs1)c1ccccc1	?
CC(C)OCCCN1C(=O)c2cc3occc3n2CC1(C)C(=O)NC1CCCCCC1 (stereo not drawn)	i
C[S+](=O)([O-])N1CC2(Cc3ccccc3N(C(=O)Cc3ccc(F)cc3)C2)C1	i
O=C1NCc2c1c1c3ccccc3[nH]c1c1[nH]c3ccccc3c21	i
CCc1ccc(CN2C(=O)c3cc(C(=O)OC)nn3CC2(C)C(=O)NC2CCCCC2)cc1 (stereo not drawn)	i
COc1cccc(CNC(=O)c2cc3n(n2)CC(C)(C(=O)NC2CCCCC2)N(C)C3=O)c1 (stereo not drawn)	i
CCC(C)NC(=O)c1ccc2c(=O)n(C)c3nn(CC(=O)N(C)c4ccc(F)cc4)c(=O)n3c2c1 (stereo not drawn)	i
COCc1nc(C2CC(NC(=O)c3nn(C)c4c3CCCC4)C2)cc(=O)[nH]1 (stereo not drawn)	i
Cn1c(=O)c2ccc(C(=O)NC3CCCC3)cc2n2c(SCc3ccccc3Cl)nnc12	i
CCCn1c(=O)c2ccccc2n2c(=O)n(CC(=O)c3ccccc3)nc12	i
CCNC(=O)N[C@H]1CC[C@]2(C)CCC([C@H](C)C(=O)N(C)CCC#N)[C@H](O)[C@H]2[C@@H]1C (stereo partly drawn)	i
CC(CN(C)C)CN1c2ccccc2CCc2ccccc21 (stereo not drawn)	i
Cc1ccc(C)c(NS(=O)(=O)c2ccc3c(c2)[C@H]2C=CC[C@H]2[C@@H](c2cccc(Cl)c2)N3)c1	i
O=C(O)c1ccc(CC2CCN(Cc3ccccn3)C2)cc1 (stereo not drawn)	i
CN1C(=O)c2cc(NC(=O)c3cc(-c4ccncc4)nc4ccccc34)ccc2N2CCN=C12	i
O=C(O)c1cc2c(s1)CN(C1CCCC1)C2	i
CC(C)CCN1CCC2(C1)C(=O)N(c1ccccc1)c1ccccc12 (stereo not drawn)	i
CCCSCCCNC(=O)c1cc2n(n1)CC(C)(C(=O)NC1CCCCC1)N(C)C2=O (stereo not drawn)	i
CC(=O)O[C@H]1C[C@@](O)(C(C)C)[C@@H]2[C@@H](OC(=O)c3ccc(O)cc3)CC(C)=CC[C@@]12C	i
Cc1cccc(N2C(=O)c3cc(-c4cccs4)nn3CC2(C)C(=O)NC2CCCCC2)c1C (stereo not drawn)	i
COc1cccc(NC(=O)N2CCn3cccc3C2C)c1 (stereo not drawn)	i
COc1cccc(CN2C(=O)c3cc4oc(C)cc4n3CC2(C)C(=O)NC2CCCCCCC2)c1 (stereo not drawn)	i
CCCn1c(=O)c2ccc(C(=O)NC(C)C)cc2n2c(SCC(=O)c3ccc(C)cc3C)nnc12	i
CCCCCOC(=O)Nc1nc(=O)n([C@@H]2O[C@H](C)[C@@H](O)[C@H]2O)cc1F	?
O=C(/C=C/c1ccccc1)O[C@@H]1[C@@H](CO)O[C@@](CO)(O[C@H]2O[C@H](CO)[C@@H](O)[C@H](O)[C@H]2O)[C@H]1O	i
CN(C(=O)CN1CCCn2nc(C(=O)NCc3ccc(Cl)cc3)cc2C1=O)c1ccccc1	i
CN1C(=O)c2cc(C(=O)NCCc3ccc(Cl)cc3)nn2CC1(C)C(=O)NC1CCCCCC1 (stereo not drawn)	i
CCc1ccc(N2C(=O)CSc3c(c4ccccc4n3C)C2C(=O)NCCCOC(C)C)cc1 (stereo not drawn)	i
CCOc1ccc(N2C(=O)CSc3c(c4ccccc4n3C)C2C(=O)NCc2ccccc2OC)cc1 (stereo not drawn)	i
CC(C)[C@H](N)C(=O)OCCOCn1cnc2c(=O)[nH]c(N)nc21	?
COc1ccnc(CN2C(=O)NC(CCc3ccccc3)(C3CCNCC3)C2=O)c1 (stereo not drawn)	i
CC(C(=O)NCCc1ccccn1)C1CCOCC1 (stereo not drawn)	i
O=C1NC2(Cc3ccccc31)CN(C(=O)c1ccccc1)C2	i
Cc1cccc(N2CCN(S(=O)(=O)c3cc4[nH]c(=O)[nH]c4cc3Cl)CC2)c1C	i
COC(=O)[C@H]1CCCN1C(=O)[C@@H]1C[C@H](NC(=O)NC(C)C)CN1C(=O)c1cccn1C	i
COc1cccc(N2C(=O)c3cc4occc4n3CC2(C)C(=O)NC2CCCC(C)C2C)c1 (stereo not drawn)	i
COC(=O)c1ncn2c1C(=O)N(CCc1cccs1)C(C)(C(=O)NC1CCCCC1)C2 (stereo not drawn)	i
Cc1cc2ncc(C(=O)N3CCN(c4ncccn4)CC3)cn2n1	i
O=C1C(N2CCN(Cc3ccc[nH]3)CC2)CCN1CCc1ccccc1 (stereo not drawn)	i
CC(C)Oc1ccc(C(=O)N[C@H](CNC(=O)CN(C)C)Cc2ccc(-c3cn4cccc([C@H](C)O)c4n3)cc2)cc1Cl	?
NC(=O)N1CCC(CC(=O)N2CCC(C3c4ncc(Br)cc4CCc4cc(Cl)cc(Br)c43)CC2)CC1 (stereo not drawn)	+
CC1(C)CC[C@]2(C(=O)O)CC[C@]3(C)C(=CCC4[C@@]5(C)CC[C@H](O[C@@H]6O[C@H](C(=O)O)[C@@H](O)[C@H](O[C@@H]7O[C@H](CO)[C@H](O)[C@H](O)[C@H]7O)[C@H]6O[C@@H]6O[C@H](CO)[C@@H](O)[C@H](O)[C@H]6O)C(C)(C)C5CC[C@]43C)[C@@H]2C1 (stereo partly drawn)	i
COC(=O)c1ncn2c1C(=O)N(Cc1ccc(N(C)C)cc1)C(C)(C(=O)NC1CCCCC1)C2 (stereo not drawn)	i
CCc1ccc(-c2cc3n(n2)CC(C)(C(=O)NC2CCCCC2)N(Cc2cccs2)C3=O)cc1 (stereo not drawn)	i
Cc1ccc(NC(=O)c2cc3n(n2)CC(C)(C(=O)NC2CCCCCC2)N(C)C3=O)c(Cl)c1 (stereo not drawn)	i
CN1CCN(C(=O)N2CCC3(CCCN(C4CCCC4)C3=O)C2)CC1 (stereo not drawn)	i

Of the compounds above, 2 contain a CF3 group:
SMILES	Methyltransferases
CC(C)C1=NOC2(CCN([S+](=O)([O-])c3cccc(C(F)(F)F)c3)C2)C1 (stereo not drawn)	i
CN(c1ccc(NC(=O)Nc2ccc(OC(F)(F)F)cc2)cc1)c1ccnc(Nc2cccc(S(N)(=O)=O)c2)n1	?

Other records:
SMILES	Methyltransferases
CCC(C)NC(=O)CSc1nnc2n(Cc3ccccc3)c(=O)c3ccc(C(=O)NC(C)C)cc3n12 (stereo not drawn)	i
CCOCCCNC(=O)c1cc2n(n1)CC(C)(C(=O)NCc1ccc(C)cc1)N(C)C2=O (stereo not drawn)	i
CSCc1noc(CN2CCCC(CO)(CC=C(C)C)C2)n1 (stereo not drawn)	i
CC1(C(=O)NCc2ccccc2)Cc2ccccc2C(=O)N1Cc1cccc(Cl)c1 (stereo not drawn)	i
COc1ccc(Cl)cc1C(=O)N1CC(F)(F)C[C@H]1c1nc(C)no1	i
CCCN1C(=O)c2cc(C(=O)NCCc3ccc(OCC)cc3)nn2CC1(C)C(=O)NC1CCCC1 (stereo not drawn)	i
CCOC(=O)c1cc2n(n1)CC(C)(C(=O)NC1CCCCCC1)N(c1cccc(F)c1)C2=O (stereo not drawn)	i
CC(C)CCNC(=O)c1cc2n(n1)CC(C)(C(=O)NCc1ccccc1)N(C)C2=O (stereo not drawn)	i
CN(Cc1ccccc1)C(=O)Cn1c(=O)oc2cc(S(=O)(=O)NCc3ccccc3)ccc21	i

Some of these compounds in order of count of non-hydrogen atoms, smallest number first:
SMILES	Methyltransferases
CC1(C(=O)NCc2ccccc2)Cc2ccccc2C(=O)N1Cc1cccc(Cl)c1 (stereo not drawn)	i
CCOCCCNC(=O)c1cc2n(n1)CC(C)(C(=O)NCc1ccc(C)cc1)N(C)C2=O (stereo not drawn)	i
CCCN1C(=O)c2cc(C(=O)NCCc3ccc(OCC)cc3)nn2CC1(C)C(=O)NC1CCCC1 (stereo not drawn)	i
